Sfp inh – blocks B. subtilis Sfp PPTase activity; Q9F4F7; Biochemical Sfp PPTase activity, qHTS; Potency, µM, for inactives: max response, negative = inhibition, usual class: inhibitors; 3.5% of 310,000 active; active = well fitted inhibition curve with a large enough effect; inconclusive = small, poorly fitted or top-dose-only effect, or another doubt; inactive = no such curve, though single readings can be large or run the other way;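 note: the enzyme is Sfp with the accession as filed and its product quenches rhodamine fluorescence; potency is the fitted concentration of half-maximal effect; 0% = enzyme reaction without inhibitor and -100% = no enzyme wells; top concentration of the series not given in the record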
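Compounds were incubated with enzyme (final 15 nM) for 15 min at room temperature before substrate addition started the reaction. Fluorescence at 525 nm excitation, 598 nm emission was recorded immediately and after 30 minutes.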
Six1-Eya2 inh – blocks human Six1 binding to Eya2 | AlphaScreen GST-Six1/His-Eya2 binding, biochemical; stronger effect = lower value; control for the full effect not named in the record | activity change, % (test concentration not listed) | 0.56% of 360,000 active | AID 651725; in the data active = activity change below about -65%; inconclusive = about -30% to -65%; inactive = above about -30%; note: % is set by controls: 0 for no effect and ±100 for the full control effect; compound concentration not given in the record
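Homogeneous AlphaScreen proximity assay pairing GST-Six1 with His-tagged Eya2 (added as 5X mix: 250 nM and 500 nM) in 50 mM Tris pH 8.0, 300 mM NaCl, 1 mM TCEP. Glutathione donor and nickel acceptor beads; 1 h, 37 °C, dark.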
D2 ag – activates the human D2 dopamine receptor; P14416; DiscoveRx PathHunter D2 beta-arrestin, luminescence, 90 min; 100% = 57 uM dopamine signal; activation, % (no concentration beside the values); 0.084% of 360,000 active; AID 624465; in the data active = activation above about 40%; inconclusive = about 15% to 40%; inactive = below about 15%; note: compound concentration not given in the record; the text of the record calls up to 30% inactive
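DiscoveRx PathHunter D2 beta-arrestin cells (2,100/well) attached overnight, then compound-stimulated 90 min at 37 C in HBSS/10 mM HEPES/0.1% Tween-20 buffer; beta-galactosidase complementation read by luminescence after 1 h at ambient temperature. Dopamine 57 uM final (EC100) as control.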
PINK1 expr mod – PINK1 expression modulation; PINK1 immunofluorescence, high-content cytometry, 24 h; Potency, µM (titrated, usually from 76.6 µM), for the others: at the top dose activation (PINK1 increase), usual class: activators; 0.2% of 410,000 active; AID 624263; active = well fitted activation curve with a large enough effect; inconclusive = small, poorly fitted or top-dose-only effect; inactive = flat fitted curve, though single readings scatter; cell line not stated here;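 note: potency is the fitted concentration of half-maximal effect; % of control where 0% means no effect; nearly all actives have a fitted effect of over 65% in size; a mitochondrial uncoupler was the plate control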
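Measures PINK1 amount and localization on or inside mitochondria by immunofluorescence. Stable cells get compounds at 5 concentrations for 24 hours before fixation and staining; CCCP controls included.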
TRPV1 PAM – human TRPV1 potentiation | Q8NER1 | TRPV1-expressing cells, Fluo-8 calcium influx, capsaicin EC20 potentiation; host cell line not named in the record; control for the full effect not named in the record | potentiation, % at 8.33 µM | 0.02% of 320,000 active | AID 540277; active means potentiation above 80%; inconclusive means 30% to 80%; inactive means below 30%; note: 0% is about no effect
Target sequence (Q8NER1 whole entry, looked up): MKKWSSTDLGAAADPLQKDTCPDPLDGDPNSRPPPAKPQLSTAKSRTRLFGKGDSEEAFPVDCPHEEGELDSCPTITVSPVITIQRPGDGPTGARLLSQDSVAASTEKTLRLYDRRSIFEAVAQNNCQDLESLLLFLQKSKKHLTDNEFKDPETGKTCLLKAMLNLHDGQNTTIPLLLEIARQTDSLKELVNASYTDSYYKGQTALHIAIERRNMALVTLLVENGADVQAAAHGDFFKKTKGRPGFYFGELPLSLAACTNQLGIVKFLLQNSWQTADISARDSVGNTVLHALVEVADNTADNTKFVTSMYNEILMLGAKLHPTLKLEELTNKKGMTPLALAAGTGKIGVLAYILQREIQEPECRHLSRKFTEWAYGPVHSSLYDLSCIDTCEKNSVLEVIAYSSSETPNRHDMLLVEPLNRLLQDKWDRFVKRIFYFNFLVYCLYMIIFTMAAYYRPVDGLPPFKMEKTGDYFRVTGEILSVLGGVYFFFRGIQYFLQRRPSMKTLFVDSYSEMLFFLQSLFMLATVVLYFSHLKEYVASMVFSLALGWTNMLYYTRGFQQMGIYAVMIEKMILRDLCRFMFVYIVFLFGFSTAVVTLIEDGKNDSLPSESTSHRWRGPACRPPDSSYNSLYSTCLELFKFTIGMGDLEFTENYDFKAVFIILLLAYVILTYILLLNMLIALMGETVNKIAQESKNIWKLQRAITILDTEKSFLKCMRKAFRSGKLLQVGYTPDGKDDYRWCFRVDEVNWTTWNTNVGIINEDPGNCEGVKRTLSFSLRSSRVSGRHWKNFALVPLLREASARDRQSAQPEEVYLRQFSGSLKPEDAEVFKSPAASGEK
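Fluo-8 calcium influx in TRPV1-expressing cells, kinetic read (ex 480/em 520 nm). Compound added and read 3 min for agonist activity, followed by capsaicin at EC20 final and 2 min further read for enhancement.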
D2 potentiator – positive allosteric modulators of human D2 dopamine receptor | P14416 | DiscoveRx D2 beta-arrestin cells, luminescence, 90 min; 100% = 57 uM dopamine signal | potentiation, % (concentration not given with the values) | 0.23% of 360,000 active | AID 624464; active = potentiation of 50% or more; inconclusive = 30% to 50%; inactive = 30% or less;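 note: compound concentration not given in the record; tested on top of an EC20 dose of dopamine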
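D2 cells co-treated with compound plus 50 nM dopamine (EC20) for 90 min at 37 deg C to detect potentiation. Beta-arrestin recruitment was read as enzyme-fragment luminescence after 1 h at ambient temperature. Full response was set by 57 uM dopamine.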
CtBP-E1A inh – inhibitors of CtBP/E1A interaction; AlphaScreen GST-E1A/His-CtBP binding, 1536-well; stronger effect = lower value; control for the full effect not named in the record; activity change, % (no concentration beside the values); 0.49% of 340,000 active; in the data active means activity change below about -65%; inconclusive means about -30% to -65%; inactive means above about -30%; note: % is set by controls: 0 for no effect and ±100 for the full control effect; compound concentration not given in the record
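Homogeneous bead-based format: GST-tagged E1A captured on glutathione donor beads, His-tagged CtBP on nickel acceptor beads; compounds precede bead addition by 2 h at 37 °C.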
Numbers without * were called inactive; ? = inconclusive; / = no result given; & = joins results of further samples; [ ] = another dose, or the depositor's remark. Compounds as they come; 3.7% or so of the library scored in one or more.

Results follow in this order: Sfp inh	Six1-Eya2 inh	D2 ag	PINK1 expr mod	TRPV1 PAM	D2 potentiator	CtBP-E1A inh
- COC(=O)Nc1nnc(COc2cccc(C)c2)s1
    -1%	13	-0.4	-0.4%	7	-4	/
- CCc1ccc(NC(=O)CCS(=O)(=O)c2ccc(Cl)cc2)cc1
    5%	2	2.2	2.0%	-13	-4	/
- CC1=NOC(=O)/C1=C\c1ccc(-c2cc(Cl)ccc2Cl)o1
    18µM*	-14	-4.1	-5.4%	-8	22	-22
- CC(c1ccccc1)n1c(CO)nc2ccccc21 (stereo not given)
    14%	-1	-0.1	-0.5%	-2	-3	/
- Cc1cc(NC(=O)c2cccnc2)ccc1NC(=O)c1cc2ccccc2o1
    8%	-1	9.2	5.7%	15	-7	/
- COC(=O)CSc1nc2c(c(-c3ccco3)c1C#N)CCCC2
    35µM*	-10	-2.7	1.1%	12	-12	-3
- Cc1ccccc1-n1c(O)c(/C=N/N2CCCCC2c2cccnc2)c(=O)[nH]c1=O (stereo not given)
    21%	9	1.4	-2.3%	-1	-3	-7
- CCn1cc(/C=C(\NC(=O)c2ccc(OC)c(OC)c2)C(=O)N2CCOCC2)c2ccccc21
    3%	-1	3.3	0.7%	22	2	0
- COc1ccc(C(=O)NCCSCc2ccccc2C)cc1
    4%	5	-0.3	2.4%	-30	-24	-9
- CC(=Nc1ccccc1)C1=C(O)C(CC(C)C)NC1=O (stereo not given)
    /	6	-3.7	0.2%	/	0	0
- O=C(C1CC12CCCC2)N1CCC(CO)(Cc2ccccc2Cl)CC1 (stereo not given)
    7%	-4	-1.9	0.4%	-19	1	-1
- COc1cccc(C(C(=O)NC2CCCCC2)N(C(=O)c2ccco2)c2ccccc2OC)c1 (stereo not given)
    2%	-1	0.1	0.8%	-1	-8	-6
- C=CCN(CC=C)C(=O)C[n+]1ccc(C(N)=O)cc1
    12%	0	-1.3	0.3%	-7	-13	/
- CC1=C(C)C(OCCBr)N(c2cc(O)c(Cl)cc2F)C1=O (stereo not given)
    16%	-2	-2.6	-1.4%	7	-9	1
- O=C(NCC(c1ccco1)N1CCN(c2ccccc2)CC1)c1cccs1 (stereo not given)
    /	0	11	-5.4%	-3	-7	-15
- O=S(=O)(c1cccs1)N1CCN(c2ccccc2)CC1
    2%	0	8.1	0.8%	-4	-4	3
- CCn1c(COc2cc(C)cc(C)c2)nnc1SCC(=O)N1CCN(c2ccccc2)CC1
    16%	0	2.7	15%[38.3 µM]	-3	-2	2
- Cn1c(CCN2CCN(c3ccccn3)CC2)nc2cc(NS(=O)(=O)c3ccc(Cl)cc3)ccc21
    -4%	-13	13	0.7%	27	-22	-14
- COc1ccc(C2CC(c3ccccc3)=NN2C(=S)Nc2ccccc2)cc1 (stereo not given)
    13%	-26	-0.5	0.9%	8	-15	-23
- CCCCN(C(=S)SC)C1CCS(=O)(=O)C1 (stereo not given)
    28%	6	-4.9	-2.2%	1	-6	3

Overlap with the part before: 3 compounds, followed by the next part.
Results follow in this order: Sfp inh	Six1-Eya2 inh	D2 ag	PINK1 expr mod	TRPV1 PAM	D2 potentiator	CtBP-E1A inh
- Cn1c(CCN2CCN(c3ccccn3)CC2)nc2cc(NS(=O)(=O)c3ccc(Cl)cc3)ccc21
    -4%	-13	13	0.7%	27	-22	-14
- COc1ccc(C2CC(c3ccccc3)=NN2C(=S)Nc2ccccc2)cc1 (stereo not given)
    13%	-26	-0.5	0.9%	8	-15	-23
- CCCCN(C(=S)SC)C1CCS(=O)(=O)C1 (stereo not given)
    28%	6	-4.9	-2.2%	1	-6	3
- O=C(CCCn1c(=O)c2sccc2n(Cc2ccc(F)cc2)c1=O)NCc1ccco1
    27%	1	-0.7	?	-7	-9	42
- CCC(=O)NC(=S)NNC(=O)c1ccccc1[N+](=O)[O-]
    10µM*	9	-6.4	-0.7%	0	-6	10
- Cc1ccc(S(=O)(=O)N(C)C)cc1NC(=O)COC(=O)CSc1ccccc1
    /	8	-0.8	4.9%	7	-24	-2
- O=C(NCc1ccc2c(c1)OCO2)c1ccc(CN2CCc3ccccc3C2)cc1
    22%	-9	1.6	-1.3%	9	-34	-1
- O=C(NCc1ccccc1)C(c1ccncc1)N(C(=O)c1ccccn1)c1ccccc1 (stereo not given)
    12%	-3	-0.3	-0.6%	-1	-2	-2
- CCN(C[C@H]1N[C@@](C)(C(=O)OC)[C@H]2C(=O)N(C)C(=O)[C@@H]12)C(=O)C1CCCCC1
    /	8	0.4	-0.4%	/	0	4
- NC(=O)Cn1ccc(O)c(Cc2ccc(Cl)cc2Cl)c1=O
    -2%	16	-7.0	2.1%	-1	-7	/
- O=C(Nc1ccc(O)c2c(=O)cc(-c3ccccc3Cl)oc12)c1ccc(Cl)cc1Cl
    -11%&1%	5	-0.4	1.2%	1	-5	4
- Cc1occc1C(=O)NNC(=O)c1ccc(F)cc1
    3%	3	1.6	-2.2%	19	27	5
- COCCCn1c(=N)c(C(=O)NCC2CCCO2)cc2c(=O)n3cccc(C)c3nc21 (stereo not given)
    12%	-18	-1.7	-0.3%	13	-11	-12
- O=C(NC1CCCCC1)C(c1ccc(O)cc1)N(C(=O)c1cnccn1)c1cccc(F)c1 (stereo not given)
    13%	-4	1.5	1.7%	-8	-2	6
- O=C(Cn1cnc2c(OCc3ccccc3)ncnc21)NCCc1c[nH]c2ccccc12
    /	-12	1.1	-1.0%	/	/	0
- Cc1onc(-c2c(Cl)cccc2Cl)c1C(=O)Nc1ccc2c(c1)OCCO2
    8%	-2	-1.9	-1.0%	9	5	2
- CCCCCC(C)n1[nH]c(=O)c2c(C)cc(C)nc21 (stereo not given)
    -7%	-5	-3.9	17%	/	1	2
- C=CCn1c(SC(F)F)nc2scc(-c3ccco3)c2c1=O
    ?	8	-0.7	1.4%	4	-18	21
- CCC(C(=O)NC(C)(C)C)N(C(=O)Cn1nnc(-c2ccccc2F)n1)c1cnc2ccccc2c1 (stereo not given)
    23%	3	-5.2	1.0%	-12	-5	/
- CC(C)CC(=O)NC(NC(=S)Nc1sc2c(c1C#N)CCCC2)C(Cl)(Cl)Cl (stereo not given)
    -3%	-8	-4.8	?	-10	-31	-8
- CCOC(=O)C1C(C#N)=C(N)OC(C)=C1c1ccncc1 (stereo not given)
    17%	11	1.2	-1.9%	5	-8	-8
- CCOC(=O)C1CCCN(S(=O)(=O)Cc2ccccc2Cl)C1 (stereo not given)
    -1%	6	-6.3	4.7%	-3	-5	-2
- COc1ccc(N2CCCn3c2nc2c3c(=O)n(Cc3ccccc3)c(=O)n2C)c(OC)c1
    3%	-5	-2.4	3.1%	7	-5	-8

Continued.
Results follow in this order: Sfp inh	Six1-Eya2 inh	D2 ag	PINK1 expr mod	TRPV1 PAM	D2 potentiator	CtBP-E1A inh
- N#CCN1CCN(CC(=O)Nc2ccc(OCc3ccccc3)cc2)CC1
    0%	-2	-0.2	-4.7%	17	-1	4
- O=P(O)(O)c1ccccc1OCCCCCOc1ccccc1P(=O)(O)O
    8%	-16	-0.7	?	-8	17	-2
- CN(C(=O)COC(=O)CNC(=O)CNC(=O)c1ccc(Cl)cc1Cl)c1ccccc1
    20%	-2	5.0	2.8%	5	1	15
- Brc1ccc(C2=Nn3c(nnc3-c3cccnc3)SC2)s1
    -1%	-22	0.7	-0.1%	8	-6	-26
- NNC(=O)c1ccc(N2CCc3ccccc32)c([N+](=O)[O-])c1
    8%	?	4.9	-1.2%	-4	-12	-30
- COc1cc(C2CC(=O)NC3=C2C(=O)CC(C)(C)C3)ccc1O (stereo not given)
    18%	2	-2.2	1.1%	-3	-19	13
- O=C(NC1CCCCC1)c1ccc(CNc2nc(=S)[nH]c3ccccc23)cc1
    ?	0	-1.6	7.7%	3	-15	-1
- CCOC(=O)N1CCC(NC(=O)CN2C(=O)CCSc3ccccc32)CC1
    13%	-3	-5.6	2.8%	3	-6	2
- CCCCNC(=O)C1c2ccccc2OCC(=O)N1Cc1ccccc1 (stereo not given)
    /	27	/	?	/	/	1
- COCCCNC(=O)c1ccc2sc(C3=C[C@@H](O)[C@@H](O)[C@@H](CO)O3)nc2c1
    /	-3	-4.6	2.9%	/	-5	0
- COc1ccc(S(=O)(=O)Oc2ccc3c(c2)O/C(=C\c2cccnc2)C3=O)cc1
    -5%	4	2.7	?	-3	9	2
- COc1cc(C(=O)NNC2=CC(=O)CC(C)(C)C2)cc(OC)c1OC
    20%	5	1.3	0.6%	-2	-3	6
- COc1ccc(NC(=O)c2cc(SC)ccc2Cl)cc1
    6%	-1	-2.0	7.2%	-28	4	3
- CC(=O)Nc1ccc(C(=O)N2CCN(S(=O)(=O)c3ccc4c(c3)OCCCO4)CC2)cc1
    /	7	-5.4	-0.3%	-18	-4	/
- CC1(C)CNC(=O)C=C(c2ccccc2)C1
    18%	4	0.0	/	9	-15	5
- CCOC(=O)N1CCN(C(=O)c2ccc(CS(=O)c3cccc(C)c3)o2)CC1 (stereo not given)
    /	-3	-1.5	0.4%	/	-7	-3
- Cc1ncn(-c2ccc(C(=O)Oc3ccccc3)cn2)n1
    5%	-1	0.3	0.7%	13	-9	11
- CS(=O)(=O)Nc1ccc2c(c1)nc1n2CCOC1
    13%	9	-0.4	10.0%	-8	-12	4
- CCOc1ccccc1OCCCOc1ccc([N+](=O)[O-])cc1Cl
    11%	-13	-4.2	15%	11	14	23
- CC(=O)Nc1ccc(S(=O)(=O)N2CCN(CC(=O)NC3CCCC3)CC2)cc1
    -3%	-2	-1.2	1.1%	14	-20	7

Bioassay records: PubChem, National Center for Advancing Translational Sciences (NCATS)
